Screens as filed in PubChem BioAssay.
INS promoter inh: TRM-6 insulin promoter activity inhibition | TRM-6 cells (human fetal islet line), insulin promoter-eGFP reporter, imaging; reporter expression induced with tamoxifen | inhibition, % at 2 µM | 130,000 tested, 0.9% active;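 active means inhibition above the mean plus 3 SD, with well images judged a real hit on visual review, cut at about 60% in these data, passing the limit was not always enough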
HSV replic up: HSV replication enhancement. HSV replication augmentation in cells, fold increase. maximum fold increase. 220,000 tested, 0.005% active. AID 1956;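 active means peak rise of 1.5-fold or more in the series; tested in PC3 cells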;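 further: first round at 10 µM; read as green reporter fluorescence; hits show the peak of a series up to 25 µM; 1 = signal of infected wells without compound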
GALR2 agonist: agonists of human galanin receptor 2 (GALR2); O43603; GALR2-expressing cells, agonist activation read-out; activation, %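 (tested at 5 µM)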; 140,000 tested, 0.48% active; AID 803;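 active means above mean plus 3 SD of all compounds, about 5% in these data, not always enough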;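 further: 0% = vehicle buffer wells and 100% = reference agonist at full effect; tested in CHO reporter cells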
Target sequence (O43603 whole entry, looked up): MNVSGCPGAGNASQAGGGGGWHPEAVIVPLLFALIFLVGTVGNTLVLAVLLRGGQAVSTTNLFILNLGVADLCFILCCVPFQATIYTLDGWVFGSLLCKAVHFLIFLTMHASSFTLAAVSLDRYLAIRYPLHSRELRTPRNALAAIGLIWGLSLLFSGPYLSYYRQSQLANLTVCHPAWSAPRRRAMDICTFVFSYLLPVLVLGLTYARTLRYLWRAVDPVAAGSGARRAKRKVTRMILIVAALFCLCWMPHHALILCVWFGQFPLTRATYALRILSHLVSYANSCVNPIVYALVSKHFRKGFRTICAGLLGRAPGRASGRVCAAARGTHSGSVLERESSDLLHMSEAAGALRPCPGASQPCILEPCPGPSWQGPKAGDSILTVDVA
RGS16-Gao HTS: RGS16-Galphao interaction regulator (human) | O15492+P09471 | bead-based flow cytometry RGS16-Galphao binding, fluorescence; actives lie on both sides | binding response (% of control), % at 10 µM | 220,000 tested, 0.38% active;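 active means below 25% or above 175%, edge rows of some plates excepted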;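 further: Galphao activated by GDP with aluminum fluoride before binding; 100% = wells without compound and 0% = beads without RGS; some results beyond the cut were filed as inactive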
Target sequence (O15492 whole entry, looked up): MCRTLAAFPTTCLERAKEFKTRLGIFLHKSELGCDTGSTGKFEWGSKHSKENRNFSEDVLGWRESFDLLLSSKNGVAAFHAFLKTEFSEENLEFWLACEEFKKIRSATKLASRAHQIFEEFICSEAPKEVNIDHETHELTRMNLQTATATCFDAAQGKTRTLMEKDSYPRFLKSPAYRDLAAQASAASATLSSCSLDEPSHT
Target sequence (P09471 whole entry, looked up): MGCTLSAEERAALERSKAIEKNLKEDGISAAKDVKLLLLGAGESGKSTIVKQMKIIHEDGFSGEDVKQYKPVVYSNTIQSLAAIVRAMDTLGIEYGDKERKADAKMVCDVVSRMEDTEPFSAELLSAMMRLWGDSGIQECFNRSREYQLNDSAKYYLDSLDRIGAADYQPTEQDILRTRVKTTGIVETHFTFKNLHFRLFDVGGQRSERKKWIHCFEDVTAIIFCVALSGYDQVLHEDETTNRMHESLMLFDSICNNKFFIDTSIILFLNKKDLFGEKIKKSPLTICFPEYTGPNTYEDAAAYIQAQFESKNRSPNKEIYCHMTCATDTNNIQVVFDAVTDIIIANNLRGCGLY
PKD1 kinase inh: inhibitors of human PKD1 kinase; Q15139; PKD1 kinase fluorescence polarization assay; inhibition, %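 (about 10 µM by stock and volumes)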; 200,000 tested, 0.056% active; AID 797;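 active means inhibition of 50% or more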;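 further: controls were vehicle for no effect and a reference inhibitor for full effect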
INS promoter inh cell count: also measured in INS promoter inh; calls as there; normalized cell count, %; measured here: cell count, toxicity; reference of the scale not given here;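 cells exposed to compound for 48 h; stained nuclei by imaging scaled within each plate; lower means fewer cells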
HSV replic up primary fold: also measured in HSV replic up; calls as there; fold increase; compound at 10 µM; measured here: primary screen fold increase 10 uM; tested in PC3 cells;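 GFP signal in the first replicate; 1 = infected wells without compound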
An asterisk follows results filed as active; i = inactive; x = no result given.

SMILES	INS promoter inh	INS promoter inh cell count	HSV replic up	HSV replic up primary fold	GALR2 agonist	RGS16-Gao HTS	PKD1 kinase inh
Cc1ccc(-n2c(=S)[nH]c3sc4c(c3c2=O)CCC4)cc1	x	x	i	0.85	x	101.2	-7.4
CC1(C)NC(=O)N(CC(O)CNC23CC4CC(CC(C4)C2)C3)C1=O (configuration not stated)	-105.0	55.8	i	0.78	-2.9	92.5	0.5
C=CCOc1ccc(/C(O)=C2\C(=O)C(=O)N(CCOC)C2c2cccnc2)cc1 (configuration not stated)	-21.6	143.1	i	0.91	-0.2	101.4	-11.1
Cc1ccccc1NC(=S)NN1CCN(C)CC1	-40.0	205.9	i	0.98	-0.6	98.2	-5.8
CCC1(C)Cc2ccccc2-c2nc(NCCO)n(-c3ccc(C)cc3)c(=O)c21 (configuration not stated)	-64.5	107.1	i	0.957	-2.9	99.5	-10.2
COc1ccc(Cn2nnnc2C(c2ccc(F)cc2)N2CCN(C3CCCC3)CC2)cc1 (configuration not stated)	0.0	107.6	i	0.83	0.2	101.5	-5.7
C=CCN1N=C(/C=C/c2ccc(C)cc2)CCC1=O	45.0	90.1	i	0.89	x	105.2	-8.5
O=C(CCSc1nc(-c2ccco2)cc(C(F)(F)F)n1)NCCN1CCOCC1	x	x	i	0.87	x	101.9	-13.1
O=C(C1=NN[C@@H]2C(=O)N(c3cccc(F)c3)C(=O)[C@H]12)c1ccc2ccccc2n1	x	x	i	1.19	-2.7	82.1	4.5
N#CC1=C(N)NC(SCc2ccccc2)=C(C#N)C12CCCC2	5.6	89.8	i	0.91	-1.2	81.5	-3.0
N#C/C(=C/c1ccc(N2CCCCC2)cc1)c1cccc(F)c1	x	x	i	1.05	-2.4	65.3	-6.7
S=c1[nH]nc(COc2ccccc2)n1/N=C/c1ccncc1	-11.8	139.5	i	1.02	x	100.3	4.0
COc1cccc(N2CCN(C(=O)CCSCc3ccccc3F)CC2)c1	-22.2	87.5	i	1.12	x	101.6	-5.8
COc1ccc(C/C(N)=N/OC(=O)COc2ccccc2C)cc1	16.7	111.3	i	1.17	-0.5	101.2	-12.9
COc1cccc(-c2nc(CS(=O)CC(=O)NCc3ccc4c(c3)OCO4)c(C)o2)c1 (configuration not stated)	x	x	i	1	-3.0	99.1	-4.3
COc1ccccc1OCCNS(=O)(=O)c1ccc2oc3ccccc3c2c1	-56.7	90.4	i	1.06	-0.5	87.2	-9.7
CCN(CC)S(=O)(=O)c1ccc2c(c1)C(=NO)c1cc(S(=O)(=O)N(CC)CC)ccc1-2	-73.3	102.8	i	0.44	0.3	97.3	-7.4
Cc1nc(N)[nH]c(=O)c1Oc1cccc(C(F)(F)F)c1	x	x	i	0.95	x	100.0	x
CCOC(=O)C(CC)Sc1nc(-c2ccc(OC)cc2)nc2c1c(=O)n(C)c(=O)n2C (configuration not stated)	0.0	83.0	x	x	-1.7	x	-2.9
COc1ccc(-n2nc(C(=O)N3CCN(Cc4ccc5c(c4)OCO5)CC3)c3ccccc3c2=O)cc1	x	x	i	1.05	-0.3	103.2	-9.8
Cc1ccc(NS(=O)(=O)c2cc(C(=O)N3CCN(C)CC3)ccc2C)cc1C	x	x	i	0.97	x	95.5	-1.3
O=C(COc1ccc2ccccc2c1)N1CCN(C(=O)c2cccs2)CC1	0.0	81.8	i	0.8	-1.1	83.5	4.6
COc1ccc(C2C(C(=O)NCCCN3CCOCC3)c3ccccc3C(=O)N2c2ccc(OC)cc2)cc1 (configuration not stated)	x	x	i	0.89	x	101.2	-6.8
Cc1nn(-c2ccccc2)c(Cl)c1/C=N\NC(=O)c1cnccn1	-113.8	103.4	i	0.86	0.2	86.8	-8.6
S=C(NCCc1c[nH]c2ccccc12)NC1CCCCC1	43.8	77.2	i	0.99	x	95.7	-1.2

The results go on:
SMILES	INS promoter inh	INS promoter inh cell count	HSV replic up	HSV replic up primary fold	GALR2 agonist	RGS16-Gao HTS	PKD1 kinase inh
O=C(NNc1ncnc2c1cnn2-c1ccccc1)c1ccco1	-500.0	142.1	i	0.92	x	96.7	-2.9
CCN(CC(=O)NC(C)(C)C)C(=O)COc1c(Cl)cc(Cl)c2ccc(C)nc12	x	x	i	1.04	x	100.4	x
COc1ccc(CN2C3CCCC2CC(NC(=O)Nc2ccccc2)C3)cc1 (configuration not stated)	81.2*	35.8*	i	0.91	-2.4	99.8	-0.1
Cc1cccc(C)c1-n1c(SCC(=O)N2CC(=O)Nc3ccccc32)nc2ccccc2c1=O	x	x	i	0.79	0.9	104.7	-5.4
CC(C)c1ccccc1NC(=O)CCCC(=O)O	46.1	53.3	i	0.94	2.2	104.4	-4.2
N=C1S/C(=C\c2ccc(-c3cccc(Cl)c3)o2)C(=O)N1c1nccs1	x	x	i	1.31	-0.3	100.0	-6.4
Cc1ccc(C(=O)Oc2oc(-c3ccco3)nc2C=Nc2ccccc2)cc1	34.2	87.4	i	0.96	-1.8	94.9	-10.8
Cc1cc(C)cc(OCc2nnc(SCC(=O)OC(C)C)o2)c1	28.6	96.9	i	1.15	-1.7	108.8	1.2
CCOC(=O)c1c(NC(=O)/C=C/c2ccc3c(c2)OCO3)sc(C)c1CC	x	x	i	1	-3.2	101.2	0.0
COc1cccc(C2=NOC(C(=O)Nc3cc(C)on3)C2)c1 (configuration not stated)	x	x	i	0.98	x	99.1	x
Cc1ccc(C)c(N(CC(=O)NC2CCCC2)C(=O)CCCC(=O)Nc2ccccn2)c1	x	x	i	0.89	-1.2	99.7	-6.2
CC1CC(=O)c2cnc(Nc3ccccc3)nc2C1 (configuration not stated)	-32.4	90.8	i	0.86	-4.2	100.8	-5.6
O=C(Cc1sc(-c2ccccc2)nc1-c1ccccc1)Nc1ccccc1	x	x	i	0.97	-1.7	99.1	-4.7
NC(=O)c1ccc(Cl)c2ccccc12	x	x	i	1.16	x	102.8	x
CCOC(=O)C1=NN(c2ccccc2)C2(S1)SC(C(C)=O)=C(C)N2c1ccccc1 (configuration not stated)	60.0	58.6	i	0.69	-1.1	97.7	-10.3
Cc1ccc(C)c(-c2cc(C(=O)Nc3cccc(C(=O)O)c3)c3ccccc3n2)c1	x	x	i	0.97	x	104.8	-0.6
Cc1nn(-c2c(Cl)cc(Cl)cc2Cl)c(=O)c2ccccc12	16.1	97.4	i	0.89	-1.9	99.5	-6.2
CC(=O)Nc1ccc(-n2cc(-c3ccccc3)[nH]c2=S)cc1	-18.2	159.4	i	0.76	x	110.2	-0.5
O=C(/C=C/c1ccccc1Cl)N(Cc1cccs1)C1CCS(=O)(=O)C1 (configuration not stated)	x	x	i	0.88	x	101.7	x
N#C/C(=C/c1ccc(F)cc1)c1nnc(NC(=O)c2ccccc2)s1	x	x	i	1.02	x	99.8	x
CCCNC(=O)CC(NS(=O)(=O)c1ccc(OC)cc1)c1ccco1 (configuration not stated)	x	x	i	1.07	x	96.2	-2.6
Cc1onc(-c2ccccc2)c1CNC(=O)Nc1ccccc1	x	x	i	1.02	x	102.2	x
C=CCO/N=C(/CCC)C1=C(N)CC(C)(C)CC1=O	x	x	i	0.96	x	104.3	-3.5
Cn1nnc(NC(=O)C(c2ccccc2)c2ccccc2)n1	42.4	95.6	i	0.82	0.1	105.4	-3.9
CC(C)CC(NC(=O)C1CCC(C)CC1)C(=O)NCc1cccnc1 (configuration not stated)	0.0	105.6	i	0.93	-2.0	43.7	1.3

The list goes on; the last four above are carried over.
SMILES	INS promoter inh	INS promoter inh cell count	HSV replic up	HSV replic up primary fold	GALR2 agonist	RGS16-Gao HTS	PKD1 kinase inh
Cc1onc(-c2ccccc2)c1CNC(=O)Nc1ccccc1	x	x	i	1.02	x	102.2	x
C=CCO/N=C(/CCC)C1=C(N)CC(C)(C)CC1=O	x	x	i	0.96	x	104.3	-3.5
Cn1nnc(NC(=O)C(c2ccccc2)c2ccccc2)n1	42.4	95.6	i	0.82	0.1	105.4	-3.9
CC(C)CC(NC(=O)C1CCC(C)CC1)C(=O)NCc1cccnc1 (configuration not stated)	0.0	105.6	i	0.93	-2.0	43.7	1.3
CC(C)(C)Nc1nc(OCC#N)nc(N2CCCCC2)n1	x	x	i	1.06	x	108.5	-10.0
COc1cccc(-c2nc(N3CCCCC3C)c3ccccc3n2)c1O (configuration not stated)	x	x	i	0.967	1.8	82.8	0.3
CC(C)(C)NC(=O)NCc1ccco1	x	x	i	0.89	x	93.9	x
CCCCNC(=O)c1cc2nc3c(c(C(F)(F)F)n2n1)CCc1ccccc1-3	13.3	114.2	i	1	-2.9	101.8	-4.9
O=C(c1csc2ccccc12)N1CCN(c2ccccn2)CC1	x	x	i	0.98	-1.6	102.9	-5.4
COc1ccc(CCNC(=O)CN(c2cc([N+](=O)[O-])ccc2OC)S(C)(=O)=O)cc1	x	x	i	1	x	105.8	8.0
CCOC(=O)C1=C(C)NC(SCC(=O)Nc2nc(C)cs2)=C(C#N)C1c1cccs1 (configuration not stated)	50.0	54.0	x	x	21.8*	101.4	-1.6
O=C(NCN1C(=O)C2C3C=CC(C3)C2C1=O)Nc1nccs1 (configuration not stated)	8.6	91.5	i	1.02	-0.6	97.8	0.5
Cc1nn(Cc2ccccc2)c(N)c1-c1ccccc1	x	x	i	0.91	0.1	102.3	-12.0
COc1ccc(CSc2nnc(N)s2)cc1F	x	x	i	1.03	-1.0	100.2	1.4
N#CC1=C(N)N(c2ccccc2)C(=O)C1	-13.3	104.7	i	0.85	-1.6	104.5	-4.8
Cc1c(Br)c([N+](=O)[O-])nn1CC(=O)N1CCN(Cc2ccccc2)CC1	-90.5	18.0	i	0.91	x	109.5	6.6
Cc1occc1-c1nnc(SCC(=O)Nc2ccc(F)cc2)n1Cc1ccccc1	x	x	i	1.02	0.5	104.3	-1.8
C=CCn1c(O)c(C2=c3ccccc3=NC2=O)sc1=Nc1ccc(O)cc1	x	x	i	0.45	x	94.1	x
CN(Cc1cccs1)C(=O)CCc1c[nH]c2ccccc12	x	x	i	0.99	x	93.4	6.8
COCCCNC(=O)c1ccc(Cn2c(=O)c3ccccc3n(Cc3ccccc3C#N)c2=O)cc1	-12.9	17.2	i	0.89	-4.2	100.9	-2.5
CCC(=O)N(Cc1ccc(S(N)(=O)=O)cc1)C1CC(=O)N(c2ccc(OC)cc2)C1=O (configuration not stated)	14.3	142.3	i	1	1.1	104.9	-6.4
O=C(Nc1ccccc1N1CCN(C(=O)c2ccc(Cl)cc2)CC1)c1cc2ccccc2o1	-10.8	160.6	i	0.987	0.4	102.3	-2.7
CC(C)c1ccc(C2C3=C(CC(C)(C)CC3=O)NC3=C2C(=O)c2ccccc23)cc1 (configuration not stated)	x	x	i	0.88	-2.7	89.3	1.3
Cc1cccc(-c2nsc(SCC(=O)NCc3ccco3)n2)c1	x	x	i	0.85	-2.0	98.3	-0.8
Cc1ccc(Cc2cc(C)n[nH]c2=O)cc1	x	x	i	1.55	x	92.4	x
Cn1nc(C(F)(F)F)c(/C=N/OC(=O)c2ccccc2)c1Cl	39.3	70.8	i	0.74	-3.2	109.0	-8.5
COc1cccc2[nH]c3c(=O)n(CCCN4CCOCC4)cnc3c12	x	x	i	0.99	x	99.4	x
COc1ccc(Nc2cc(C(=O)NCc3cccnc3)c3ccccc3n2)c(OC)c1	20.9	85.2	i	1	x	98.1	-1.8
C/C(=N/N=C1\SCC(=O)N1c1ccccc1)c1ccc(C)cc1	x	x	i	0.91	x	97.3	x
Cn1c(=O)n(C)c2cc([N+](=O)[O-])c(N3CCN(C(=O)c4ccccc4Cl)CC3)cc21	x	x	i	0.87	-1.1	96.1	-2.5
CC(C)(C)C(=O)COC(=O)c1ccccc1O	-21.7	82.7	i	1	-1.3	104.7	-6.6
O=C(COC(=O)c1ccc(Cl)c(S(=O)(=O)N2CCc3ccccc3C2)c1)Nc1ncc(Cl)cc1Cl	21.4	89.5	i	0.96	-0.8	97.2	-4.2
CC(=O)Nc1ccc(NC(=O)C(C)n2c3ccccc3c3nc(=O)cc(C)n32)cc1 (configuration not stated)	x	x	i	0.99	x	106.5	-4.8
Cc1ccc(/C=N/n2c(-c3ccncc3)n[nH]c2=S)s1	x	x	i	1.21	x	83.0	x

3 entries from above, arranged by their value in RGS16-Gao HTS, largest number first.
SMILES | HSV replic up | HSV replic up primary fold | GALR2 agonist | RGS16-Gao HTS | PKD1 kinase inh
CC(=O)Nc1ccc(NC(=O)C(C)n2c3ccccc3c3nc(=O)cc(C)n32)cc1 (configuration not stated) | i | 0.99 | x | 106.5 | -4.8
CCOC(=O)C1=C(C)NC(SCC(=O)Nc2nc(C)cs2)=C(C#N)C1c1cccs1 (configuration not stated) | x | x | 21.8* | 101.4 | -1.6
COc1ccc(Nc2cc(C(=O)NCc3cccnc3)c3ccccc3n2)c(OC)c1 | i | 1 | x | 98.1 | -1.8
